Screening results deposited in PubChem BioAssay by several laboratories.
HNF4A DNA FP: change in binding of human HNF4 alpha to DNA; HNF4a-FITC DNA binding, fluorescence polarization, 1 h; activity change, % at 10 µM; hit rate 0.3% among 360,000; AID 1224865; in the data active means activity change above about 30%, passing the limit was not always enough;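 further: controls were the assay level and a saturating level of protein; the project sought stronger binding though the title names inhibitors; some compounds called inactive have numbers as strong as hits; positive values seem to mean higher polarization but the record does not say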
Target sequence (P41235 whole entry, looked up): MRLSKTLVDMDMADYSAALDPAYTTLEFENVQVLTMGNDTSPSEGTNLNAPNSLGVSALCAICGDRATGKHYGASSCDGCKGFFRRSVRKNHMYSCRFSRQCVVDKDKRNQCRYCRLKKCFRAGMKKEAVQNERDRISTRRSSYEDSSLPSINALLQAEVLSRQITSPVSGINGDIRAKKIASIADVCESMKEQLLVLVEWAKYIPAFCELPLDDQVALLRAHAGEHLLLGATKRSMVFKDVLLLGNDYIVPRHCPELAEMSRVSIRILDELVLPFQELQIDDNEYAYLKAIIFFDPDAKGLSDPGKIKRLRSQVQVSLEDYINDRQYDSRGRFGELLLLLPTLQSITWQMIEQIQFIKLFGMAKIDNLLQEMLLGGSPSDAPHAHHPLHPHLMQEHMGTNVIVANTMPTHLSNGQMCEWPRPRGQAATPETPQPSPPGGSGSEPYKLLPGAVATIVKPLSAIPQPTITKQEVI
FGF22 binding: FGF22 (human) thermal shift binding. hit rate 1.5% among 340,000. Q9HCT0. recombinant FGF22 thermal shift, SYPRO orange fluorescence; percent of sucrose octasulfate shift, DMSO zero. calls only at 9.99 µM;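 active means melting point raised past a set limit in the mean and every replicate; inconclusive means no clear call; three in four hits are not shown here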
Target sequence (Q9HCT0 whole entry, looked up): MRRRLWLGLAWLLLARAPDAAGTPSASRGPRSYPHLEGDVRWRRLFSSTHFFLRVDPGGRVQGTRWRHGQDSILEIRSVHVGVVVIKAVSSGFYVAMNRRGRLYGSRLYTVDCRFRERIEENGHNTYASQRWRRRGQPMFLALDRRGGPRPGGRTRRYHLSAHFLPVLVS
ALR inh: inhibitors of human sulfhydryl oxidase ALR; P55789; hit rate 3.8% among 290,000; purified ALR, DTT oxidation, H2O2 HRP-luminol luminescence; inhibition, % (concentration not given with the values);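 active means mean and each replicate at 75% or more; inconclusive means only one of the two met; inactive means neither met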;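 further: stock transfer was 7.5 nL into about 7.5 µL; 0% = neutral wells and 100% = wells with inactivated enzyme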
Ecoli growth: inhibitors of Escherichia coli growth | OD600 absorbance (no concentration beside the values) | OD600, 23 h; hits give low values | hit rate 0.21% among 330,000;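 active means OD600 absorbance below the run mean of sample wells minus 3.6 SD, in any replicate, cut at about 0.56 in these data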;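 further: stock transfer was 300 nL into about 60 µL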
UCH37 DUB inh: human UCH37 deubiquitinating enzyme inhibition; Q9Y5K5; purified proteasome/UCH37, Ub-AMC cleavage fluorescence; inhibition, % (no concentration beside the values); hit rate 0.33% among 330,000; AID 588478;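 active means mean of two replicates above 20%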;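 further: 0% = compound-free wells with enzyme and 100% = wells lacking proteasome; stock transfer was 100 nL into about 20 µL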
Target sequence (Q9Y5K5 whole entry, looked up): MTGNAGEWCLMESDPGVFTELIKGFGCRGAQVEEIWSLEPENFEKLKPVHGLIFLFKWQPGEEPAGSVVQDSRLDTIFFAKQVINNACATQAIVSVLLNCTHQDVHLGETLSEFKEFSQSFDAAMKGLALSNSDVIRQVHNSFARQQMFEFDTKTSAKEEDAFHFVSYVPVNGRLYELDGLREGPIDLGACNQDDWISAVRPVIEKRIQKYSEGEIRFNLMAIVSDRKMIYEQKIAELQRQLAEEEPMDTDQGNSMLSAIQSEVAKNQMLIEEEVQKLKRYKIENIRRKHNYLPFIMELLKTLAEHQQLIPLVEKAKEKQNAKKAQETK
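Test system – human UCH37 enzyme supplied as purified proteasome complex · Incubation – 30 min preincubation with enzyme, 25 min cleavage at room temperature · Detection – AMC fluorescence from Ub-AMC cleavage, excitation 355 nm, emission 460 nm · Benchmarks – no-proteasome wells (full inhibition) and compound-free wells (no inhibition)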
B2AR ag: activates human beta-2 adrenergic receptor causing internalization; Am2.2-beta2AR cells, FAP receptor internalization, flow cytometry; reference of the scale not given here; AID 504454; response, % (no concentration beside the values); hit rate 0.43% among 340,000; P07550;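 active means response above a set limit, near 3 SD of response in nonfluorescent compounds, cut at about 42% in these data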;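 further: stock transfer was 100 nL into about 11 µL; a reference agonist was the positive control; negative values mostly stem from fluorescent compounds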
rRNA inh HTS: inhibitors of bacterial rRNA selective over humanized ribosomes. E. coli WT GFP vs humanized-ribosome RFP mutants, fluorescence, 24 h; hits give low values; DMSO median 0, no signal -100. GFP signal change (wild-type ribosome), % (no concentration beside the values). hit rate 1.6% among 350,000. AID 720706;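 active means significant combined selectivity score with lowered wild-type GFP, culture density cut under 30%, mutant RFP and density less affected; inactive means any of these conditions unmet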; further: one replicate is shown; some compounds called inactive have numbers as strong as hits
rRNA inh HTS OD600: recorded beside rRNA inh HTS, whose call it bears; OD600 change, %; measured here: OD600 growth;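 optical density of the mix in the first replicate; 0 = DMSO median and -100 = no signal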
rRNA inh HTS RFP: further read-out of rRNA inh HTS, marked with its call; RFP signal change, %; measured here: RFP humanized mutant strains;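 first replicate; 0 = DMSO median and -100 = no signal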
Active calls of the source: *; i = inactive; ? = inconclusive; / = no result given; + = active, no number. An excerpt; count on the stated rates, not on these rows.

SMILES	HNF4A DNA FP	FGF22 binding	ALR inh	Ecoli growth	UCH37 DUB inh	B2AR ag	rRNA inh HTS	rRNA inh HTS OD600	rRNA inh HTS RFP
O=C1c2ccccc2C(=O)C12Cc1ccccc1N1CCN(c3ccccc3)CC12 (stereo not drawn)	0.2	/	/	0.629	0.4	25.3	/	/	/
Cc1ccc(C(=O)N[C@@H](C)CN2C3=NC[C@H](C(C)C)N3C[C@H]2Cc2ccc(O)cc2)cc1Br	-4.4	i	-0.9	/	3.3	4.8	0.6	-12.0	-0.2
O=C(CCCN1C(=O)c2ccccc2C1=O)Nc1ccccc1C(=O)N1CCOCC1	1.0	/	-12.7	0.791	-0.7	-0.3	/	/	/
Oc1[nH]c2ccc(Br)cc2c1N=NC(=S)NCC1CCCO1 (stereo not drawn)	3.3	i	27.1	/	/	-11.4	-31.5*	-11.7*	4.7*
Cc1ccc2ncccc2c1	0.0	i	28.1	0.645	-1.2	7.8	5.6	4.7	-0.9
Cc1ccc(CNC(=O)C(=O)c2cn(CC(=O)N3CCCC3)c3ccccc23)cc1	1.4	i	-4.6	0.688	5.0	-15.1	-2.3	-0.7	3.9
Cc1cc2nc3c(=O)[nH]c(=S)[nH]c3nc2cc1NC(=O)C(F)(F)F	-40.1	i	16.9	0.656	9.8	4.0	41.1	-6.6	-2.5
O=C(CN1CCOCC1)NNC(=O)c1ccc(Cl)cc1	-0.2	i	-2.0	0.685	2.2	4.1	11.5	13.6	-0.9
CCc1cccc(NC(=O)C2CCCN(S(=O)(=O)c3c(C)[nH]c(=O)[nH]c3=O)C2)c1 (stereo not drawn)	-2.3	/	/	0.727	1.4	-13.3	/	/	/
CC(=O)Nc1cccc(NC(=O)C2CC(=O)N(c3ccc(C)cc3)C2)c1 (stereo not drawn)	3.0	i	1.8	0.672	-3.1	-3.3	6.6	-4.0	0.7
CCOc1ccc(NC(=O)CCc2ccc(C)o2)cc1	-1.6	i	5.1	0.664	1.2	1.9	9.5	3.6	0.9
CNC(=S)N1N=C(c2ccc(OC)cc2)CC1c1ccc(N(C)C)cc1 (stereo not drawn)	-1.8	/	-2.4	0.717	5.6	-6.6	/	/	/
S=C(Nc1ccc(Cl)c(Cl)c1)NC1CCN(Cc2ccccc2)CC1	0.4	/	/	0.585	0.4	6.3	/	/	/
Cc1cnc(NC(=O)CSCc2c(C)noc2C)s1	0.6	i	-12.8	0.701	-1.9	-1.7	5.5	4.9	-2.0
CCN(CC)c1nc(N)n(CCSC(=S)N(C)C)c(=O)n1	-0.4	i	-3.5	0.639	2.3	6.9	-3.0	3.8	-0.5
O=C(C1=C(O)C(=O)N(CC2CCCO2)C1c1ccc(Cl)cc1)c1ccco1 (stereo not drawn)	-0.6	i	3.5	0.683	8.0	-4.6	5.2	14.5	-3.1
C=CCc1cccc(C=Nc2ccc(Br)cc2)c1O	-0.5	i	-2.0	0.721	4.5	-2.8	0.3	6.4	-0.1
O=C(CSC1=NCCS1)Nc1ccccc1F	-1.1	/	98.7*	0.673	1.8	-0.4	/	/	/
COc1ccc(-n2nc(C)c3c(=O)c4c([nH]c32)CCCC4)cc1	-1.0	i	-1.5	0.647	1.9	-8.8	3.5	7.0	1.0
CCC1CCCCN1CCCNC(=O)CN1C(=O)c2cccnc2Oc2ccc(Cl)cc21 (stereo not drawn)	4.6	i	-21.2	0.679	2.3	2.7	8.0	13.7	0.0
CCCc1cc(=O)oc2c(C)c(OCC(=O)NCCCN3CCOCC3)ccc12	-1.4	i	-2.2	0.669	-17.9	-8.0	-7.6	4.0	-2.4
CCOP(=O)(OCC)C(Nc1cccc(C(F)(F)F)c1)c1ccc(C)cc1 (stereo not drawn)	1.1	i	-33.2	0.677	5.6	10.8	-14.8	-30.9	21.0
Cc1ccc(CONC(=O)c2ccc([N+](=O)[O-])cc2)cc1	-2.0	i	-2.5	0.648	1.7	-2.0	-3.8	11.2	-1.0
CCOc1ccc(NC(=O)CN(C)c2nnnn2-c2ccccc2)cc1OCC	1.6	/	/	0.769	4.2	-4.2	/	/	/
CCOc1ccccc1NC(=O)NC(C)c1ccc2c(c1)OCO2 (stereo not drawn)	4.8	i	-10.1	/	/	3.5	-10.4	-7.5	0.4
O=C(NCc1ccccc1C(F)(F)F)C1CCC(=O)N(C2CCCCCC2)C1 (stereo not drawn)	-0.5	i	13.4	0.707	2.3	4.7	-11.6	-13.7	3.8
CCCN1C(=O)C(=O)N(CC(=O)c2cc(C)n(C3CC3)c2C)C1=O	-1.1	i	/	0.667	5.9	0.3	8.6	-5.5	-2.0
C=C(C)Cn1c2ccc(NC(=O)NCc3ccccc3)cc2c(=O)n1C	0.2	i	/	/	/	/	-0.3	3.1	-0.6
O=C(NCc1nnc(SCC(=O)N2CCCCC2)o1)c1c(F)cccc1F	1.3	i	-7.2	0.685	-1.0	-1.6	19.8	15.1	2.3
CC(=O)c1cccc(NC(=O)C(C)OC(=O)c2cccc(-n3cnnn3)c2)c1 (stereo not drawn)	1.1	i	-3.3	0.669	5.3	-1.6	0.9	-5.9	-0.1
CSc1nnc2n(-c3ccccc3)c(=O)c3c4c(sc3n12)CCC4	1.7	/	1.8	0.748	3.5	-1.2	/	/	/
CN1CCN(C(=O)CCN2C(=O)/C(=C\c3ccc(F)cc3)SC2=S)CC1	4.8	i	/	0.702	7.0	-8.4	0.0	8.9	10.8
Cc1ccc(C(=O)N2CCOCC2)cc1S(=O)(=O)N1CCCC1	0.7	i	-19.9	0.701	3.3	-0.5	9.3	7.9	-0.8
Cc1ccccc1C(=O)c1ccc2c(c1)n(C)c(=O)n2C	-1.9	/	-23.0	0.701	3.1	1.3	/	/	/
C/C(=N/NC(=O)c1ccc(Br)o1)c1cccc(NC(=O)c2ccc(F)cc2)c1	-4.1	i	-24.0	/	/	3.9	-6.6	-12.6	1.9
COc1cc(NC(=O)COC(=O)c2ccc3ccccc3n2)cc(OC)c1	5.2	i	/	0.682	-1.3	11.6	0.2	0.7	0.1
O=C(CN(C(=O)c1csnn1)c1cccc(Cl)c1)NC1CCCCC1	5.1	i	-3.3	0.715	3.8	2.7	5.9	4.0	-2.2
O=C(Cc1ccc(Br)cc1)NNC(=O)Nc1ccc(Cl)cc1	0.5	i	-7.1	0.713	2.3	12.4	/	/	/
O=C(C1CCN(S(=O)(=O)c2cccc3cccnc23)CC1)N1CCc2ccccc21	3.2	/	/	0.705	0.1	0.1	/	/	/
CCCCCCCN1C(Nc2ccccc2)=NC[C@@H]1C	3.5	i	-0.1	/	0.8	-3.1	6.3	-6.5	2.2
CN(C)Cc1ccccc1Sc1ccc(Br)cc1	-3.0	/	-9.5	0.608	1.3	3.0	/	/	/
CCCN1C(=S)SC(C)(C)C1/[N+]([O-])=C/c1ccc(S(=O)(=O)NC)cc1 (stereo not drawn)	4.5	i	-2.4	0.681	3.4	6.9	0.6	2.4	1.6
C[C@H](N)c1nnc(SCC(N)=O)o1	-2.1	i	-5.2	0.622	2.9	8.7	-0.8	5.5	-1.9
Cc1oc(-c2cccs2)nc1CN1CCN(C2CCCC2)C(CCO)C1 (stereo not drawn)	3.8	i	27.3	0.697	2.3	5.0	9.7	8.2	0.5
O=C1CCN(Cc2ccccc2)S(=O)(=O)c2ccccc21	4.5	i	-7.5	/	2.9	-13.1	-6.4	3.2	-4.3
Cc1ccc(C)c(NC(=S)N2CCCC2)c1	7.6	i	-23.1	0.699	0.4	2.5	-2.5	1.1	-3.0
CC(C)C[C@@H](CN)NC(=O)c1nc[nH]c1C(=O)N[C@@H](CC(C)C)C(=O)CNC[C@H](C)NC(=O)c1nc[nH]c1C(=O)N[C@@H](C)C(=O)O	-0.1	i	/	/	/	-10.7	17.5	4.8	4.7
Cc1ccc(CNC(=O)CCC(=O)N2CC(C)Oc3ccccc32)cc1 (stereo not drawn)	0.2	i	5.4	0.771	0.9	-15.4	-0.4	-2.9	-1.0
OC(CNCCc1ccccc1)c1ccccc1 (stereo not drawn)	0.3	i	0.3	0.712	3.2	7.2	0.9	-2.5	0.0
CCCn1c(=O)n(C)c(=O)c2c(SC(C)C(=O)NCC3CCCO3)nc(CC(C)C)nc21 (stereo not drawn)	4.2	i	-0.6	0.691	-0.7	-2.2	10.3	10.4	-1.0
COc1ccc(-c2nc3ccccc3c(=O)n2CC(C)C)cc1	2.8	i	3.3	0.713	2.2	-6.4	-29.1	-30.4	-5.5
COC(=O)c1ccc(CSC2=NCCS2)cc1	1.6	/	?	0.726	1.6	3.5	/	/	/
Cc1csc(NC(=O)C(Cc2ccccc2)n2cccc2)n1 (stereo not drawn)	0.8	i	6.5	0.75	3.5	-3.6	2.0	6.5	-4.0
CCCC[n+]1ccn(-c2nc3ccccc3nc2[N-]S(=O)(=O)c2cccs2)c1	0.8	i	7.4	0.674	-112.3	-26.0	-25.8*	-3.3*	-0.6*
O=C(O)c1ccccc1C(=O)c1ccc(N2CCOCC2)c([N+](=O)[O-])c1	-3.6	i	-15.1	0.705	3.9	8.0	14.2	11.2	0.6
Cc1ccc(/C=N/Nc2nncc(-c3ccccc3)n2)o1	-2.5	i	4.4	/	/	-13.1	7.0	4.4	-2.4
COc1cccc(OC)c1C(=O)Oc1ccc2c(c1)O/C(=C\c1ccncc1)C2=O	-1.1	i	-8.5	0.676	1.1	23.6	/	/	/
COc1ccc(-c2cc(OC)c3ccccc3n2)cc1	-4.6	/	-6.5	0.637	-74.3	-4.6	/	/	/
CC(NC(=O)C1(c2cccs2)CCOCC1)c1ccccc1 (stereo not drawn)	0.6	i	-4.7	0.711	0.9	-2.5	4.7	-2.7	-6.0
Cc1cc(NC(=O)CSc2nc3ccccc3c(=O)n2CCCC(=O)NCc2ccccc2)n[nH]1	0.2	/	-6.7	0.69	2.6	5.1	/	/	/

A few values from above:
`CCCn1c(=O)n(C)c(=O)c2c(SC(C)C(=O)NCC3CCCO3)nc(CC(C)C)nc21` (stereo not drawn) in ALR inh reads -0.6
`OC(CNCCc1ccccc1)c1ccccc1` (stereo not drawn) in UCH37 DUB inh reads 3.2

(more compounds)
SMILES	HNF4A DNA FP	FGF22 binding	ALR inh	Ecoli growth	UCH37 DUB inh	B2AR ag	rRNA inh HTS	rRNA inh HTS OD600	rRNA inh HTS RFP
O=C(NCc1ccncc1)c1nc(-c2ccc(C(F)(F)F)cc2)no1	-0.1	i	/	0.704	0.2	-6.6	-11.2	3.0	-0.6
CCc1nnc(NC(=O)CCC(=O)Nc2ccc(C)cc2)s1	5.7	i	-1.4	0.701	2.4	1.8	0.8	7.0	-2.4
CC(Sc1nnc(-c2ccccc2)c(-c2ccccc2)n1)C(=O)NCC1CCCO1 (stereo not drawn)	2.8	i	2.2	0.668	-0.4	-9.1	/	/	/
c1ccc(Cn2nnc3c(N4CCC5(CC4)OCCO5)ncnc32)cc1	3.5	/	-3.8	0.692	5.2	6.9	/	/	/
CN(C)N1C(N)=C(C#N)C(c2cccnc2)C2=C1CC(C)(C)CC2=O (stereo not drawn)	-4.6	/	7.3	0.766	9.2	3.4	/	/	/
COc1ccccc1NS(=O)(=O)c1ccc(C(=O)N2CCCC(C)C2)cc1 (stereo not drawn)	1.1	i	5.6	0.694	3.3	6.2	-4.0	0.4	-1.9
O=C(O)c1ccc(NC(=O)c2cn(-c3ccccc3)nc2-c2ccc(Br)cc2)cc1	-2.8	+	17.8	0.685	-0.4	-11.2	-42.2	-45.2	-6.0
Cc1ccc(S(=O)(=O)N2[C@@H](c3ccccc3F)C(C(=O)O)=CC[C@H]2c2ccc(Cl)cc2)cc1	1.5	i	2.5	/	2.9	-3.9	-39.6	-52.3	-16.4
